Assay outcomes (PubChem BioAssay)
HCMV UL50-53 inh – inhibitors of HCMV UL50-UL53 nuclear egress complex interaction | inhibition, % (concentration not given with the values) | HTRF UL50-UL53 interaction, normalized percent inhibition | 0.15% of 190,000 active | AID 1918969;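 active means both replicates at 50% or more, plus weaker picks with an unusually low signal ratio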;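 further: stock transfer was 100 nL into about 20 µL; 0% = negative control wells and 100% = wells with untagged competitor protein; inactives centre near -12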
Sa growth 42C – S. aureus growth inhibition | S. aureus RN4220 growth, OD600, 20 h, 42 °C; active compounds read low | relative growth, % (no concentration beside the values) | 0.53% of 170,000 active;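 active means growth at 42 °C up to 50% and 20 or more points under that at 30 °C, or under 10% at both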;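 further: 300 nL library stock went into each well; scaled to the means of positive and negative controls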
GIV Gai3 FP – blocks GIV peptide binding to rat Galpha-i3; P08753; Galpha-i3/FITC-GIV peptide fluorescence polarization, 90 min; active compounds read low; scaled: aluminum fluoride 0%, vehicle 100%; percent of control (FP), % (concentration not given with the values); 0.42% of 210,000 active; AID 1224905;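 active means replicate mean at 85% of control or lower, very high polarization wells dropped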;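 further: wells of about 15 µL received 100 nL stock; the first replicate is given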
Target sequence (P08753 whole entry, looked up): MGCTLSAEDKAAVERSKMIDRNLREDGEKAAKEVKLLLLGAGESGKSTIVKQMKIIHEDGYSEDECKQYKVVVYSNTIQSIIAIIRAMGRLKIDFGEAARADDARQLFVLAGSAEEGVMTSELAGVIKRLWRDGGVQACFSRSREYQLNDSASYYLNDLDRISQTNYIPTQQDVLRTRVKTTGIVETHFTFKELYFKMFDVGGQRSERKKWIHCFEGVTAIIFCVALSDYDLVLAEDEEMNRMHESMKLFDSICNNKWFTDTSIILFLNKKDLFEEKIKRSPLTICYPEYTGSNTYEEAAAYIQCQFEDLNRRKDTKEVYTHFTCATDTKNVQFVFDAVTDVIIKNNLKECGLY
Sa growth 42C second temp – recorded beside Sa growth 42C, whose call it bears; relative growth, %; measured here: growth at 30 °C;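 optical density after 20 h as mean of two plates; 100% = untreated growth and lower means inhibition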
The depositor's hits bear a star; & = joins results of further samples.

O=C(Cn1cnc2sccc2c1=O)N1CCCC1c1ccc2c(c1)OCCCO2 (stereo not drawn) was read as HCMV UL50-53 inh -24, Sa growth 42C 82 and Sa growth 42C second temp 89.
Cc1noc(C)c1COC(=O)c1cc(S(=O)(=O)NC(C)C)ccc1Br was read as HCMV UL50-53 inh 8, Sa growth 42C 83 and Sa growth 42C second temp 94.
COc1cc(S(=O)(=O)N2CCN(C)CC2)c(C)cc1C was read as HCMV UL50-53 inh -22, Sa growth 42C 85, GIV Gai3 FP 101 and Sa growth 42C second temp 91.
For O=C(NC1CCCCCC1)C1CCCO1 (stereo not drawn) the results were HCMV UL50-53 inh 9, Sa growth 42C 108, GIV Gai3 FP 106 and Sa growth 42C second temp 94.
O=C(CCCn1c(=O)c2cccn2c2cccnc21)NCc1ccccc1Br was read as Sa growth 42C 98, GIV Gai3 FP 108 and Sa growth 42C second temp 99.
`CCOC(=O)c1sc(-n2cccc2)nc1C` gave HCMV UL50-53 inh 8 and GIV Gai3 FP 112.
For O=C(CSc1nc(-c2ccc3c(c2)OCO3)nc2cc(=O)[nH]n12)NCCc1ccccc1 the results were HCMV UL50-53 inh -17 and GIV Gai3 FP 100.
Screening CCCCN(C)C(=O)c1cn(-c2cccc(OC)c2)c(=O)c2ccccc12 returned HCMV UL50-53 inh -18, Sa growth 42C 92, GIV Gai3 FP 103 and Sa growth 42C second temp 82.
For CCc1ccccc1NC(=O)Nc1cc(C(=O)NCc2ccccc2OC)ccc1N1CCCC1 the results were Sa growth 42C 82, GIV Gai3 FP 105 and Sa growth 42C second temp 91.
For CCCCN=C(C)C1C(=O)c2ccccc2C1=O the results were HCMV UL50-53 inh -50, Sa growth 42C 104, GIV Gai3 FP 98 and Sa growth 42C second temp 112.
Screening COc1ccc(-n2c(NN)nc3c(c2=O)C2(CCCC2)Cc2ccccc2-3)cc1 returned HCMV UL50-53 inh -2, Sa growth 42C 123, GIV Gai3 FP 108 and Sa growth 42C second temp 117.
For Cc1ccc(-n2c(=O)c3sc4ccccc4c3n(C)c2=O)cc1F the results were HCMV UL50-53 inh -10, Sa growth 42C 91, GIV Gai3 FP 99 and Sa growth 42C second temp 91.
`CCCCN(CC)CCNC(=O)Cn1cnc2sc(C)c(S(=O)(=O)N3CCC(C)CC3)c2c1=O` gave HCMV UL50-53 inh -28, Sa growth 42C 95, GIV Gai3 FP 102 and Sa growth 42C second temp 91.
Screening CC(C)(C)C(=O)COC(=O)c1cccnc1SCC(=O)Nc1ccc2c(c1)OCO2 returned HCMV UL50-53 inh -1, Sa growth 42C 100 and Sa growth 42C second temp 100.
`CCOC(=O)c1c(NC(=O)c2ccc([N+](=O)[O-])cc2)sc(C(=O)Nc2cccc(Cl)c2C)c1C` gave HCMV UL50-53 inh -6 and GIV Gai3 FP 103.
`Cc1cccc(C)c1NC(=O)CN(C)C(C)C(=O)Nc1ccc(S(N)(=O)=O)cc1` (stereo not drawn) gave HCMV UL50-53 inh -22, Sa growth 42C 77 and Sa growth 42C second temp 90.
Screening CCCCN(CC)CCCNC(=O)c1ccc2c(c1)N(Cc1ccc(C)cc1)C(=O)c1ccccc1S2 returned Sa growth 42C 37, GIV Gai3 FP 106 and Sa growth 42C second temp 7.
`CCSc1nnc2c(n1)OC(c1ccc(OC)c(Br)c1)Nc1ccccc1-2` (stereo not drawn) gave HCMV UL50-53 inh -29 and GIV Gai3 FP 104.
Screening COC(=O)c1nnc2c(-c3ccc(Cl)cc3)c(C)nn2c1C returned HCMV UL50-53 inh -83 and GIV Gai3 FP 99.
Screening COc1ccc(NC(=O)N2CCc3c([nH]c4ccc(OC)cc34)C2c2ccc(OC)cc2)cc1 (stereo not drawn) returned Sa growth 42C 138, GIV Gai3 FP 105 and Sa growth 42C second temp 95.
Screening O=C(Nc1nc2ccc(Cl)cc2s1)c1cccc(Cn2cc(Cl)cn2)c1 returned HCMV UL50-53 inh 6, Sa growth 42C 90, GIV Gai3 FP 108 and Sa growth 42C second temp 77.
For C(=C\c1ccccc1)/CN1CCN(c2ncnc3c2cnn3-c2ccccc2)CC1 the results were HCMV UL50-53 inh -1 and GIV Gai3 FP 103.
For CCCCSc1nnc2n1CCN2c1ccccc1 the results were HCMV UL50-53 inh -32 and GIV Gai3 FP 100.
COc1ccc(C2CC(=O)c3cc(-c4nc(-c5ccc(Cl)cc5)cs4)c(=O)[nH]c3C2)cc1 (stereo not drawn) was read as HCMV UL50-53 inh 3&-29, Sa growth 42C 97, GIV Gai3 FP 119&104 and Sa growth 42C second temp 109.
COc1cc(OC)c(NS(=O)(=O)c2cc3c(cc2C)N(C(C)=O)CCO3)cc1Cl was read as Sa growth 42C 96, GIV Gai3 FP 106 and Sa growth 42C second temp 89.
`CCOC(=O)C1=CN(C)C=C(C(=O)OCC)C1c1cccc(OCc2ccccc2)c1` gave Sa growth 42C 94, GIV Gai3 FP 97 and Sa growth 42C second temp 96.
CCN1CCCC1CNCC(O)COc1ccc(C)cc1 (stereo not drawn) was read as HCMV UL50-53 inh -24, Sa growth 42C 84 and Sa growth 42C second temp 90.
CCOC(=O)C(CC)Sc1nc2c(cnn2-c2ccc(C)c(C)c2)c(=O)[nH]1 (stereo not drawn) was read as Sa growth 42C 95, GIV Gai3 FP 105 and Sa growth 42C second temp 92.
`CC(=O)N1CCc2cc(S(=O)(=O)NC(CC(C)C)C(=O)N3CCC(Cc4ccccc4)CC3)ccc21` (stereo not drawn) gave HCMV UL50-53 inh -19 and GIV Gai3 FP 101.
`Cc1ccc2c(=O)cc(CSCC(=O)Nc3nnc(C)s3)[nH]c2c1` gave Sa growth 42C 95, GIV Gai3 FP 105&112 and Sa growth 42C second temp 89.
`O=C(CSc1ccc2ccccc2c1)OCC(=O)N1CCCC1` gave HCMV UL50-53 inh -37, Sa growth 42C 95 and Sa growth 42C second temp 92.
Screening c1ccc(-n2ncc3c2ncn2nnnc32)cc1 returned HCMV UL50-53 inh -16, Sa growth 42C 73 and Sa growth 42C second temp 82.
Screening COc1ccc(C)cc1NC(=O)c1cc(C(=O)Nc2cc(C)ccc2OC)n(C)n1 returned HCMV UL50-53 inh -17, Sa growth 42C 88, GIV Gai3 FP 107 and Sa growth 42C second temp 78.
For O=C1CC(c2nnc(-c3ccccc3)o2)CN1c1ccccc1 (stereo not drawn) the results were Sa growth 42C 93, GIV Gai3 FP 104 and Sa growth 42C second temp 79.
`c1ccc(NCc2cccc3ccccc23)nc1` gave HCMV UL50-53 inh -13, Sa growth 42C 98 and Sa growth 42C second temp 91.
OC(OCc1ccc(C(O)(C(F)(F)F)C(F)(F)F)o1)(C(F)(F)F)C(F)(F)F was read as HCMV UL50-53 inh -9, Sa growth 42C 105, GIV Gai3 FP 101 and Sa growth 42C second temp 105.
For CCN(CC)CCCNC(=O)CSc1nc2nc(C)c(Cc3ccccc3C)c(C)n2n1 the results were HCMV UL50-53 inh -13, Sa growth 42C 91, GIV Gai3 FP 102 and Sa growth 42C second temp 91.
For CCOc1ccc(-n2c(C)c(C(=O)OC3CCCCC3)c3cc(OC)ccc32)cc1 the results were HCMV UL50-53 inh -11 and GIV Gai3 FP 100.
`O=C(/C=C/c1cn(-c2ccccc2)nc1-c1cccnc1)N1CCCCC1` gave HCMV UL50-53 inh -31, Sa growth 42C 123 and Sa growth 42C second temp 75.
Screening CCCCn1c(=O)[nH]c(=O)c2c1nc(-c1ccc(-c3ccc(S(=O)(=O)N(CC)CC)cc3)o1)n2CC(C)C returned HCMV UL50-53 inh -13, Sa growth 42C 91 and Sa growth 42C second temp 91.
Cc1nc(Cn2c(=O)oc3cc(S(=O)(=O)N4CCc5ccccc5C4)ccc32)no1 was read as HCMV UL50-53 inh -12 and GIV Gai3 FP 115.
Screening Cc1c(/C=C/C(=O)Nc2ccc(F)cc2)sc2ccccc12 returned HCMV UL50-53 inh 1, Sa growth 42C 91, GIV Gai3 FP 108 and Sa growth 42C second temp 94.
Screening CCOC(=O)c1oc2ccc3c(c2c1C)C(=O)CC1(CCN(C(=O)OCC)CC1)O3 returned HCMV UL50-53 inh 8, Sa growth 42C 73, GIV Gai3 FP 104 and Sa growth 42C second temp 92.
`CC(C)c1ccc(C2N3CC4(C)CN2CC(c2ccccc2)(C3)C4=O)cc1` (stereo not drawn) gave HCMV UL50-53 inh -8, Sa growth 42C 83, GIV Gai3 FP 96 and Sa growth 42C second temp 92.
C=CCN1CN(Cc2ccco2)CNC1=S was read as HCMV UL50-53 inh -36, Sa growth 42C 93, GIV Gai3 FP 97 and Sa growth 42C second temp 78.
Screening Cn1c(/C(C#N)=C/c2ccc(C(F)(F)F)cc2)nc2ccccc21 returned HCMV UL50-53 inh 24, Sa growth 42C 97, GIV Gai3 FP 106 and Sa growth 42C second temp 71.
Screening COc1cc2c(cc1NC(=O)C(C)Oc1ccc(Cl)cc1Cl)oc1ccccc12 (stereo not drawn) returned HCMV UL50-53 inh -3, Sa growth 42C 94, GIV Gai3 FP 98 and Sa growth 42C second temp 88.
CCC(=O)/C(=C(/O)c1ccccc1)c1nc2ccccc2[nH]1 was read as HCMV UL50-53 inh -15, Sa growth 42C 101 and Sa growth 42C second temp 94.
Screening COc1ccc(C2CC(=O)C3=C(C2)Nc2ncnn2C3c2ccccc2F)cc1 (stereo not drawn) returned HCMV UL50-53 inh -34 and GIV Gai3 FP 98.
Screening CCn1cc2nc(SCc3cccc(Cl)c3)n(Cc3ccc(C)cc3)c(=O)c2n1 returned HCMV UL50-53 inh -4, Sa growth 42C 102, GIV Gai3 FP 103 and Sa growth 42C second temp 102.
For Cc1cc(C(=O)COC(=O)c2ccco2)c(C)n1CC1CCCO1 (stereo not drawn) the results were HCMV UL50-53 inh -16, Sa growth 42C 77 and Sa growth 42C second temp 87.
CCOC(=O)C1=C(CN2CCN(c3cc(C)ccc3C)CC2)NC(=O)NC1c1ccccc1 (stereo not drawn) was read as HCMV UL50-53 inh -40, Sa growth 42C 101, GIV Gai3 FP 105 and Sa growth 42C second temp 91.
`CCc1ccc(NC(=O)CCc2c(C)n(C)c3nc(-c4ccccc4)nn3c2=O)cc1` gave HCMV UL50-53 inh -14 and GIV Gai3 FP 101.
CC(C)S(=O)(=O)c1ccc(NCCC2=CCCCC2)nn1 was read as HCMV UL50-53 inh -24 and GIV Gai3 FP 101.
`Cc1nc2ccccc2n(CC(=O)NCCc2c[nH]c3ccccc23)c1=O` gave HCMV UL50-53 inh -26 and GIV Gai3 FP 106.
Screening O=C(OCc1nnc(-c2ccc(Cl)cc2)o1)c1ccc(S(=O)(=O)N2CCc3ccccc3C2)cc1 returned HCMV UL50-53 inh -21, Sa growth 42C 70 and Sa growth 42C second temp 76.
`O=S1(=O)CCC(S(=O)(=O)Nc2c(F)c(F)c(F)c(F)c2F)C1` (stereo not drawn) gave HCMV UL50-53 inh 2, Sa growth 42C 111, GIV Gai3 FP 106 and Sa growth 42C second temp 94.
Cc1ccc(-c2cn3cccnc3n2)cc1NC(=O)CC(C)(C)C was read as Sa growth 42C 93, GIV Gai3 FP 101 and Sa growth 42C second temp 83.
`Clc1ccc(N=Cc2ccc(Br)o2)cc1Cl` gave HCMV UL50-53 inh -21, Sa growth 42C 94 and Sa growth 42C second temp 84.
Screening CN(C(=O)c1cc2sccc2s1)c1ccccc1 returned HCMV UL50-53 inh -1, Sa growth 42C 116, GIV Gai3 FP 104 and Sa growth 42C second temp 70.

By substructure: the entries above containing a tert-butyl group (2)
Screening CC(C)(C)C(=O)COC(=O)c1cccnc1SCC(=O)Nc1ccc2c(c1)OCO2 returned HCMV UL50-53 inh -1, Sa growth 42C 100 and Sa growth 42C second temp 100.
Cc1ccc(-c2cn3cccnc3n2)cc1NC(=O)CC(C)(C)C was read as Sa growth 42C 93, GIV Gai3 FP 101 and Sa growth 42C second temp 83.

Molecules from the list above that contain a CF3 group (two):
OC(OCc1ccc(C(O)(C(F)(F)F)C(F)(F)F)o1)(C(F)(F)F)C(F)(F)F was read as HCMV UL50-53 inh -9, Sa growth 42C 105, GIV Gai3 FP 101 and Sa growth 42C second temp 105.
Screening Cn1c(/C(C#N)=C/c2ccc(C(F)(F)F)cc2)nc2ccccc21 returned HCMV UL50-53 inh 24, Sa growth 42C 97, GIV Gai3 FP 106 and Sa growth 42C second temp 71.

(continued)
`O=C(Cc1csc(NC(=O)NC2CCCC2)n1)NCCc1c[nH]c2ccccc12` gave HCMV UL50-53 inh -1 and GIV Gai3 FP 104.
For COc1ccc(C2(C(=O)NC(C)(C)CO)CCCC2)cc1OC the results were HCMV UL50-53 inh -14, Sa growth 42C 107, GIV Gai3 FP 103 and Sa growth 42C second temp 88.
Screening Nc1cc(Br)cnc1N returned HCMV UL50-53 inh -49, Sa growth 42C 91 and Sa growth 42C second temp 62.
`CCOC(=O)c1c(NC(=O)c2ccccc2)sc2c1CC(C(C)C)OC2` (stereo not drawn) gave Sa growth 42C 97, GIV Gai3 FP 100 and Sa growth 42C second temp 68.
Screening c1coc(-c2nc3sc4c(N5CCCCC5)ncnc4c3c3c2CCCC3)c1 returned HCMV UL50-53 inh -18, Sa growth 42C 74, GIV Gai3 FP 108 and Sa growth 42C second temp 64.
Screening CCn1c2c(c3cc(C4CCCCC4)ccc31)CCC/C2=N\O returned Sa growth 42C 79, GIV Gai3 FP 110 and Sa growth 42C second temp 98.
Screening Cc1oc(-c2ccccc2F)nc1CS(=O)CC(=O)NCc1ccccn1 (stereo not drawn) returned Sa growth 42C 84, GIV Gai3 FP 104 and Sa growth 42C second temp 79.

Hits appear at their usual frequency; 0.82% or so of the library scored in one or more.
